Source: PubChem (National Center for Advancing Translational Sciences (NCATS))
FBPA coupling cs = counter-screen for Giardia aldolase inhibitors: coupling enzyme system; activity change, negative = inhibition, % at 58.2 µM, hits read low; coupling enzyme system counterscreen, AmpLite Red fluorescence; hit rate 0.67% among 290,000; in the data active = activity change below about -30%; also: % is scaled to controls: 0 for no effect and ±100 for the full control effect
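Activity here indicates interference with the coupling reaction, not aldolase inhibition. Compounds at 57.5 uM final met coupling enzymes for 10 min at RT; substrate and AmpLite Red detection followed, with a 525/598 nm fluorescence read after 20 min.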
TCR act = T cell receptor activation; primary human leukocytes, anti-CD3, IL-2 HTRF, 48 h; Potency, µM (highest dose often 9.22 µM), for inactives: at the highest dose activation of IL-2 secretion, most hits filed as activators; 330,000 tested, under 10 active; AID 504894; also: % of control where 0% means no effect
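HTRF read-out of IL-2 secretion: europium cryptate donor excited at 320nm, d2 acceptor emission at 665nm. Cells were primary human leukocytes incubated 48 hr with compounds and a-CD3 beads, supplying TCR signal only.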
Giardia kill = Giardia lamblia killing; activity change, % at 7.66 µM, hits read low; hit rate 0.15% among 340,000; Giardia lamblia trophozoite viability; in the data active = activity change below about -80%; inconclusive = between about -30% and that limit;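 also: parasites exposed to compound for two days anaerobically before the ATP read; % is scaled to controls: 0 for no effect and ±100 for the full control effect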
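Giardia lamblia trophozoites (100 cells/well) were incubated with compounds for 48 h at 37 deg C under anaerobic conditions. Viability was read as ATP content by one-step luminescence after 15-30 min at room temperature.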
Tb PFK block = inhibitors of T. brucei phosphofructokinase; O15648; T. brucei PFK, ADP-Glo luminescence; Potency, µM (doses to about 57.5 µM), without a hit: at the highest dose activity, negative = inhibition, most hits filed as inhibitors; hit rate 0.17% among 330,000; AID 485367;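 also: potency is read from the fitted curve at half-maximal effect; 0% = uninhibited 1x PFK enzyme wells and -100% = no-enzyme wells; nearly all actives have a fitted effect of over 60% in size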
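In TEA buffer at pH 8.0 with 5 mM MgCl2, enzyme (1.25 nM) converted F6P (0.5 mM) and ATP (0.1 mM) for 45 min at room temperature. ADP product was read by luciferase luminescence.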
GALK inh = inhibitors of human galactokinase | P51570 | Purified GALK, Kinase-Glo residual ATP luminescence | Potency, µM (top dose mostly 57.5 µM), for inactives: at the highest dose activity change, negative = inhibition, usual class: inhibitors | hit rate 0.007% among 270,000 | AID 1868; also: potency is read from the fitted curve at half-maximal effect; % is scaled to controls: 0 for no effect and ±100 for the full control effect
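Human GALK (5 nM) with 35 uM ATP and 100 uM galactose in 20 mM HEPES pH 8.0, 5 mM MgCl2, 60 mM NaCl, 1 mM DTT, 0.01% BSA. After 1 h at room temperature, leftover ATP was read by Kinase-Glo Plus luminescence.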
AT treatment = candidate therapy for ataxia-telangiectasia; […] A-T fibroblasts, KAP-1 phosphorylation AlphaLISA; neocarzinostatin DNA damage 30 min before lysis; Potency, µM (series often up to 57.5 µM), without a hit: top-dose activation, usual class: activators; hit rate 0.19% among 320,000; also: potency is read from the fitted curve at half-maximal effect; % of control where 0% means no effect; nearly all actives have a fitted effect of over 45% in size
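hTERT-immortalized A-T patient fibroblasts ([…]), 500 cells/well in OPTI-MEM, 1% FBS, got compounds for 60 min, then NCS for 30 min at 37C. Lysates were then assayed for phospho-KAP-1 by AlphaLISA (anti-pKAP1 donor, anti-KAP1 acceptor beads), 6 hr at 25C.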
Chronic BCR inh = blocks chronic active B-cell receptor signaling | ABC-DLBCL IkBa-CBG/CBR reporter, luminescence ratio, 4 h | hit rate 0.05% among 340,000 | Potency, µM (highest dose often 46.1 µM), for the others: top-dose ratio change, negative = lower green/red ratio, actives largely listed as inhibitors | AID 493014; active = well fitted inhibition curve with a large enough effect in the signal ratio, with a control signal flat, not every such curve was filed as active; inconclusive = small, poorly fitted or top-dose-only effect, or effect the other way, or a change in a side signal; the % refers to the signal ratio;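 also: potency is read from the fitted curve at half-maximal effect; plate controls were basal doxycycline-induced cells for no effect and cells given 10 µM MG132 for full effect; MG132 reads +100%, hits lower the ratio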
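Doxycycline induced both beetle luciferases in TMD8 lymphoma cells; IKK-driven degradation limits the IkappaBalpha-fused green signal, while red luminescence normalises for cell number and nonspecific effects. Compounds tested up to 46 uM, 4 hrs.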
CXXC DNA block = MLL CXXC-DNA interaction inhibition; MLL-CXXC / FITC-HOXA9 DNA fluorescence polarization; Potency, µM (highest dose often 115 µM), without a hit: at the top dose activity change, negative = inhibition, hits mostly inhibitors; hit rate 0.037% among 290,000; AID 2662; active = well fitted inhibition curve with a large enough effect in the polarisation, with a control signal flat, not every such curve was filed as active; inconclusive = small, poorly fitted or top-dose-only effect, or effect the other way, or a change in a side signal; inactive = no such curve, though single readings can be large or run the other way; the % refers to the polarisation; also: potency is read from the fitted curve at half-maximal effect
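Purified MLL-CXXC (added from a 7 uM solution) was preincubated 5 min at ambient with pinned compounds in 50 mM Tris-HCl pH 7.5, 50 mM NaCl, 1 mM DTT, 0.05% BSA. Fluorescein-labeled HOX-A9 DNA (50 nM solution) followed, 30 min, then polarization read.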
KCNH2 WT inh = KCNH2 (human, wildtype) channel inhibition. activity change, % at 1.84 µM. hit rate 0.37% among 340,000. U2OS, BacMam KCNH2, thallium flux FluxOr; hits give low values. AID 720551. Q12809;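 active = maximum activity change below -70%; inconclusive = maximum activity change between -70% and -50%; inactive = maximum activity change above -50%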; also: % is scaled to controls: 0 for no effect and ±100 for the full control effect
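U2OS cells were transduced with wild-type KCNH2 virus (2.03 x 10^8 / mL) for 4 h at room temperature, then cultured overnight at 37 C. Thallium flux was read with FluxOr dye. Rate constants were normalized to DMSO controls.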
Numbers without * were called inactive; ? = inconclusive; · = no result given; & = joins results of further samples; [ ] = remark or other dose. Unless noted, calls follow the shape of the dose curve; as a rule, active = well fitted curve in the direction sought with a large enough effect; inconclusive = small, poorly fitted or top-dose-only effect, or another doubt; inactive = no such curve, though single readings can be large; an effect the other way counts as inactive or inconclusive. Only part of the results is shown, so the mix of outcomes need not match the whole.

#1 CCc1ccccc1-n1c(SCC(=O)NC)nnc1-c1ccco1
#2 Cc1ccc(S(=O)(=O)CC(=O)c2cc3cccc(C)c3oc2=O)cc1
#3 COc1cccc(NCc2cc(=O)oc3cc(C)c(C(C)C)cc23)c1
#4 COc1ccc([C@H]2CC(=O)c3c(O)cc(O)cc3O2)cc1O
#5 O=C(N/N=C/c1cn(-c2cccs2)nc1-c1ccccc1)c1ccccc1O
#6 COc1ccc(CN(C2CCCCC2C)S(=O)(=O)c2ccc(S(=O)(=O)N(C)C)cc2)cc1OC (stereo not given)
#7 COCc1nnc(NC(=O)C2CCN(C(=O)c3ccco3)CC2)s1
#8 O=C(O)C1CCN(c2ccc(S(=O)(=O)N3CCC(C(=O)O)CC3)cc2[N+](=O)[O-])CC1
screen / no.	1	2	3	4	5	6	7	8
KCNH2 WT inh	4	0	19	-6	5	-5	3	-23
CXXC DNA block	2%	9%	2%	5%	-5%	-1%	-7%	-11%
Giardia kill	5	11	32[activator]	1	-10	-12	5	14
FBPA coupling cs	-1	-1	-5	5	-1	1	1	·
Chronic BCR inh	2%	-3%	?	0%	?	?	3%	13%
GALK inh	-3%	-18%	-1%	·	0%	1%	1%	8%
TCR act	2%	-3%	10%	0%	2%[46.1 µM]	-6%[46.1 µM]	1%	-5%
Tb PFK block	-5%	2%	0%	0%	21%	8%	-8%	-9%
AT treatment	1%	4%	-7%	3%	·	-12%	-8%	1%

#9 O=C(Nc1ccc2oc(=O)ccc2c1)c1cccnc1Cl
#10 Cc1cc(Cc2ccc(N)c(C)c2)ccc1N
#11 Cc1cn([C@H]2C[C@H](O)[C@@H](COS(=O)(=O)O)O2)c(=O)[nH]c1=O
#12 CN(C)CCCNc1cc(Cl)c(S(=O)(=O)N2CCCCC2)cc1C(=O)O
#13 COc1c(N2CCN[C@H](C)C2)c(F)cc2c(=O)c(C(=O)O)cn(C3CC3)c12
#14 CCn1c(Cc2ccccc2)nnc1SCC(=O)Nc1ccccc1
#15 Cc1cc2occ(CC(=O)NNC(=O)c3ccccc3)c2cc1C
#16 CC(=O)N1CCC(=NNc2ccc(S(=O)(=O)N3CCOCC3)cc2[N+](=O)[O-])CC1
screen / no.	9	10	11	12	13	14	15	16
KCNH2 WT inh	5	1	-14	0	-4	-40	-16	-11
CXXC DNA block	3%	3%	·	-3%	11%	-11%	17%	6%
Giardia kill	0	17	?	2	-6	6	40[activator]	-15
FBPA coupling cs	4	0	·	0	0	-1	·	-1
Chronic BCR inh	-18%	0%	0%	-1%	16%	0%	-3%	?
GALK inh	3%	·	·	-2%	·	-1%	6%	2%
TCR act	-4%	-4%	3%	2%	-9%	-4%	0%	1%[46.1 µM]
Tb PFK block	-3%	-6%	1%	-9%	0%	2%	-2%	-2%
AT treatment	-3%	-11%	1%	·	0%	-2%	8%	-11%

One compound at a time, as listed above:
Shown for O=C(Nc1ccc2oc(=O)ccc2c1)c1cccnc1Cl = KCNH2 WT inh = 5; CXXC DNA block = 3%; Giardia kill = 0; FBPA coupling cs = 4; Chronic BCR inh = -18%; GALK inh = 3%; TCR act = -4%; Tb PFK block = -3%; AT treatment = -3%
Shown for Cc1cn([C@H]2C[C@H](O)[C@@H](COS(=O)(=O)O)O2)c(=O)[nH]c1=O = KCNH2 WT inh = -14; CXXC DNA block = ·; Giardia kill = ?; FBPA coupling cs = ·; Chronic BCR inh = 0%; GALK inh = ·; TCR act = 3%; Tb PFK block = 1%; AT treatment = 1%
Shown for CCn1c(Cc2ccccc2)nnc1SCC(=O)Nc1ccccc1 = KCNH2 WT inh = -40; CXXC DNA block = -11%; Giardia kill = 6; FBPA coupling cs = -1; Chronic BCR inh = 0%; GALK inh = -1%; TCR act = -4%; Tb PFK block = 2%; AT treatment = -2%

Further compounds:
#17 COc1ccc(CC(=O)c2cc(OC)c(OC)cc2CC(=O)O)cc1OC
#18 C=CCn1c(CCNC(=O)c2ccccc2F)nnc1SCc1nc2ccccc2c(=O)[nH]1
#19 CCOc1ccc(N2C(=O)CC(N(CCc3ccc(OC)c(OC)c3)C(=S)Nc3ccccc3)C2=O)cc1 (stereo not given)
#20 O=C(/C=C/c1cn(-c2ccccc2)nc1-c1cccs1)NCCN1CCOCC1
#21 C=CCn1c(CNC(=O)c2ccccc2F)nnc1SCC(=O)N1CCOCC1
#22 O=S(=O)(c1ccccc1F)N1CCN(Cc2cc3c(cc2Br)OCCO3)CC1
#23 CC(=O)Nc1ccc(Oc2cc(N)cc([N+](=O)[O-])c2)cc1
#24 O=C(O)c1ccccn1
screen / no.	17	18	19	20	21	22	23	24
KCNH2 WT inh	-4	-17	3	-33	0	-1	-5	-2
CXXC DNA block	-3%	3%	-3%	-2%	-4%	·	-8%	-17%
Giardia kill	2	0	-16	25	9	2	1	-15
FBPA coupling cs	1	-2	3	0	-2	·	1	·
Chronic BCR inh	0%	-1%	?	-7%	-1%	-1%	-14%	-14%
GALK inh	1%	-2%	1%	-4%	2%	·	5%	·
TCR act	2%	-5%	-5%[46.1 µM]	4%	-4%	-4%	-3%	0%
Tb PFK block	2%	3%	0%	5%	-8%	-6%	-5%	-19%
AT treatment	-6%	-1%	0%	8%	30%	9%	-1%	12%

#25 Cc1ccc(CCNC(=O)c2nn(C)c3c2CS(=O)(=O)c2ccccc2-3)cc1
#26 CC1=C(CC(=O)O)c2cc(F)ccc2C1=Cc1ccc(S(C)(=O)=O)cc1
#27 O=C(Nc1ccc2oc(=O)ccc2c1)c1ccc(-c2cccc(Cl)c2)o1
#28 COc1ccc(C2NC(c3ccc(OC)c(OC)c3OC)C(C)C(=O)C2C)c(OC)c1OC (stereo not given)
#29 Cc1nn(Cc2ccccc2Cl)c(C)c1NC(=O)Cn1nc([N+](=O)[O-])c(Cl)c1C
#30 COCCC(=O)N(Cc1ccc2c(c1)OCO2)C(C(=O)NC1CCCCC1)c1ccncc1 (stereo not given)
#31 CCCn1nnc(NC(=O)c2ccc(-c3cc(Cl)ccc3Cl)o2)n1
#32 COc1ccccc1CNC(=O)c1nn(C)c2c1CS(=O)(=O)c1ccccc1-2
screen / no.	25	26	27	28	29	30	31	32
KCNH2 WT inh	-3	1	3	16	2	-14	0	-4
CXXC DNA block	27%	·	16%	0%	1%	-18%	-4%	7%
Giardia kill	2	1	-12	4	-10	11	-16	16
FBPA coupling cs	·	·	2	0	-1	3	4	-3
Chronic BCR inh	8%	?	9%	-31%	-1%	4%	-5%	-4%
GALK inh	6%	·	0%	0%	6%	1%	0%	-2%
TCR act	2%	11%	-9%	7%	5%	-5%	5%	5%
Tb PFK block	-1%	0%	8%	-4%	-7%	0%	9%	-4%
AT treatment	3%	-3%	?	3%	2%	-5%	7%	6%

The last 2 entries of the section above come first, to join the parts:
#31 CCCn1nnc(NC(=O)c2ccc(-c3cc(Cl)ccc3Cl)o2)n1
#32 COc1ccccc1CNC(=O)c1nn(C)c2c1CS(=O)(=O)c1ccccc1-2
#33 COc1ccccc1NS(=O)(=O)c1cccc(NC(=O)Nc2ccc(Cl)cc2)c1
#34 COc1ccc(OC)c(-n2c(-c3cc(-c4ccccc4)n[nH]3)n[nH]c2=S)c1
#35 CC(C)(C)NC[C@H](O)COc1cccc2c1CCCC2=O
#36 COc1ccccc1NS(=O)(=O)c1cccc(NC(=O)Nc2cccc(Cl)c2)c1
#37 CCS(=O)(=O)c1ncc(Cl)c(C(=O)Nc2ccc(S(=O)(=O)N3CCCC(C)C3)cc2)n1 (stereo not given)
#38 C/C(=N\NC(=O)c1cccnc1)c1c(O)cc(C)oc1=O
#39 CC1=C(C(=O)O)N2C(=O)[C@@H](NC(=O)C(N)c3ccccc3)[C@H]2SC1 (stereo not given in full)
#40 Cc1cc(C)c2c(CC(=O)NC3CCS(=O)(=O)C3)coc2c1 (stereo not given)
#41 O=C(Nc1ccc(N2CCOCC2)cc1N1CCOCC1)c1ncoc1-c1cccc(F)c1
#42 CC(=O)Nc1ccc(NC(=O)c2ccc(NS(=O)(=O)c3cc(C(C)(C)C)cc(C)c3C)cc2)cc1
screen / no.	31	32	33	34	35	36	37	38	39	40	41	42
KCNH2 WT inh	0	-4	13	13	0	6	0	3	·	18	4	-13
CXXC DNA block	-4%	7%	4%	1%	-2%[51.4 µM]	13%	97%[activator]	-1%	?	30%	3%	18%
Giardia kill	-16	16	-9	13	14	18	-9	8	·	23	6	5
FBPA coupling cs	4	-3	-5	-1	-1&1	-8	-3	2	·	1	0	3
Chronic BCR inh	-5%	-4%	?	-14%	2%	?	?	?	·	3%	0%	-11%
GALK inh	0%	-2%	-2%	-5%	·	-3%	1%	-1%	·	-4%	3%	0%
TCR act	5%	5%	·	-12%[46.1 µM]	-12%	8%[46.1 µM]	4%	-5%[46.1 µM]	·	-3%	5%	3%[46.1 µM]
Tb PFK block	9%	-4%	0%	?	-3%	-13%	-13%	-1%	·	-2%	3%	-2%
AT treatment	7%	6%	-4%	1%	-11%	·	-2%	-7%	·	1%	0%	1%

Values in list order from the list.
Nos. 4 to 7 in TCR act: 0%, 2%[46.1 µM], -6%[46.1 µM], 1%
Nos. 4 to 7 in CXXC DNA block: 5%, -5%, -1%, -7%
